eIF4H inh: inhibitors of RNA binding by human eIF4H; Q15056; eIF4H fluorescence polarization binding assay; inhibition, % at 35 µM; 290,000 tested, 0.94% active; AID 2012;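 active = 50% or more with normal probe brightness, or confirmed in later tests; inconclusive = above 50% with abnormal brightness, or retests that disagree; inactive = below 50% or failed in later tests; about a fifth of its hits are not listed in these tables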;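 also: calls also rest on retests at 20 µM and on dose response follow-up; 0% = protein and probe with vehicle and 100% = probe without protein; strong numbers were not always called active; many hits fall short of the cut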
Rce1 inhib: inhibitors of yeast Ras-converting enzyme; calls only; Q03530; yeast membranes, quenched prenylated peptide cleavage fluorescence; 290,000 tested, 0.27% active;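 active = fall in fluorescence gain of 50% or more versus controls, with final raw signal at or below 3038400; inconclusive = same 50% fall but final raw signal above 3038400; inactive = fall in fluorescence gain under 50%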;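 also: plate controls were neutral control wells for no effect and wells lacking membranes for full effect; tested at 10 µM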
Target sequence (Q03530 whole entry, looked up): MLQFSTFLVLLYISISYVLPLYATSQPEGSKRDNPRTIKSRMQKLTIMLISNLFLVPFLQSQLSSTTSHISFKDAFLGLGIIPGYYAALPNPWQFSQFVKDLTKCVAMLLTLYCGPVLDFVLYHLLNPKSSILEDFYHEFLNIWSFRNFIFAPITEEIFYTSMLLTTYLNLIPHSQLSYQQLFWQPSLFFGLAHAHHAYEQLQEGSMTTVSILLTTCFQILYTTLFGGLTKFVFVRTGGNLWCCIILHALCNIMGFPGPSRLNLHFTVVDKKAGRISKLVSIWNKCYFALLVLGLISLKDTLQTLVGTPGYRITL
PABP FP inh: PABP-poly(A) binding inhibition | P11940 | PABP-poly(A) RNA binding, fluorescence polarization | inhibition, % at 35 µM | 290,000 tested, 1% active | AID 2014;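 active = 50% or more with normal probe brightness, or confirmed in later tests; inconclusive = above 50% with abnormal brightness, or retests that disagree; inactive = below 50% or failed in later tests; about a fifth of its hits are not listed in these tables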;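 also: calls also rest on retests at 20 µM and on dose response follow-up; controls were probe without protein and protein plus probe with vehicle; some compounds called inactive have numbers as strong as hits; many hits fall short of the cut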
Env fusion inh: inhibitors of HIV Env-mediated cell fusion. HeLa-JRFL Env/CEM21 cell fusion, luciferase. inhibition, % at 12.3 µM. 360,000 tested, 1.1% active;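 active = mean replicate inhibition score of at least 50 and every replicate individually at or above 50; inconclusive = only one of the two criteria met; inactive = mean below 50 and not all replicates reaching 50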;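 also: 0% = plate neutral controls and 100% = maraviroc near 300 nM; one replicate is shown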
Yeast UUG start: modulators of start codon recognition fidelity in yeast | activity score, % at 18.7 µM | S. cerevisiae UUG-firefly luciferase reporter, luminescence/redox ratio | 350,000 tested, 0.13% active;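 active = replicate mean at a twofold rise or more, about +100% in these data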;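 also: firefly luciferase made from a UUG start codon reports start codon fidelity; reporter light over untreated wells divided by growth signal over untreated wells; some hits fall short of that in this replicate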
MT1-MMP act inh: MT1-MMP (human) activation inhibition; HT1080 RFP-PRO-GFP cells, GFP/RFP ratio fluorescence, overnight; percent of plate control window, DMSO zero; GFP/RFP ratio change, % at 20 µM; P50281; 360,000 tested, 0.061% active;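 active = GFP/RFP ratio change of at least 30% with cell ATP level not reduced by more than half and red fluorescence within 50% of control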; also: strong numbers were not always called active
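Test system: HT1080 RFP-PRO-GFP cells; Benchmarks: DMSO and RFP-L50D-GFP cell wells; Timing: cells overnight before dosing, compound overnight, 37 °C, 5% CO2; Compound: one 20 µM compound dose with 1% DMSO; Read-out: GFP/RFP fluorescence ratio.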
CSC inhib: cancer stem cell inhibition | cancer stem cell-like cells viability, luminescence | inhibition, % at 7.5 µM | 300,000 tested, 1.1% active;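 active = mean at 75% or more and at least half the replicates too; inconclusive = mean and replicates disagree; tested in HMLE shEcad cells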;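 also: 0% = median of negative and 100% = median of positive control wells; the first replicate is given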
eIF4H inh retest: also measured in eIF4H inh; calls as there; inhibition, %; compound at 20 µM; confirmation average;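 mean of two retest wells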
PABP FP inh retest: also measured in PABP FP inh; calls as there; inhibition, %; compound at 20 µM; confirmation repeats;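 mean of two retest wells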
MT1-MMP act inh RFP: second read-out of MT1-MMP act inh, no call of its own (marks repeat the call); RFP signal change, %; measured here: RFP expression control read;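 0 = vehicle wells; hits needed this value within 50% of zero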
* marks the source's active call; other numbers are inactive results; i = inactive; ? = inconclusive; / = no result given.

SMILES	eIF4H inh	Rce1 inhib	PABP FP inh	Env fusion inh	Yeast UUG start	MT1-MMP act inh	MT1-MMP act inh RFP	CSC inhib	others
Cc1ccc(NC(=O)CCOc2ccccc2C)cc1F	-4	i	-2	-30	/	2	1	-3
COC(=O)C1=C(C)N(Cc2ccc(OC)cc2)C(=O)C1	-3	i	11	/	-12	-3	4	-16
O=C(CN1CCN(S(=O)(=O)c2ccc(Br)cc2)CC1)N/N=C/c1cccs1	-3	i	9	-17	/	3	5	19
CN(C)S(=O)(=O)c1cccc(NC(=O)COC(=O)CCSc2ccc(Cl)cc2)c1	10	i	-6	-78	-2	10	7	/
COc1ccc(-n2nc(C(=O)NCC(=O)N3CCN(Cc4ccccc4)CC3)c3ccccc3c2=O)cc1OC	1	i	13	9	-21	3	1	8
CCN1CCN(CCCNC(=O)c2ccccc2NC(=O)C2=C(C)OCCS2)CC1	2	i	-3	-4	-16	1	3	-26
CCOc1ccccc1OCC(=O)Nc1ccc(OC)c(S(=O)(=O)N2CCCCC2)c1	/	i	/	20	/	6	-1	-16
Cc1nc(C(C)NC(=O)c2cc(COc3ccc(F)c(F)c3)on2)cs1 (stereo unspecified)	1	i	1	-5	-13	-2	-1	-2
Cc1noc(C(=O)N2CC3(C)CC2CC(C)(C)C3)c1Cl (stereo unspecified)	5	i	1	4	-23	1	-3	1
Cc1ccc(C(C)C)c(OCC#CCN2CCOCC2)c1	15	i	41	12	2	2	-4	/
O=S(=O)(c1cccs1)N1CCN(CC(O)COC2CCCc3ccccc32)CC1 (stereo unspecified)	2	i	27	/	-5	-3	-1	-10
COc1ccc(NC(=O)Nc2ccc(C(=O)N3CCOCC3)cc2)c(OC)c1	1	i	-4	11	-3	0	2	-1
Cc1cccc(Oc2coc3cc(OC(=O)c4cccs4)ccc3c2=O)c1	-12	i	-16	/	-24	4	4	-4
O=C(CN(C(=O)c1csnn1)c1ccc(F)cc1)NCc1ccc2c(c1)OCO2	1	i	4	-3	-8	-2	0	-3
NC(=O)c1cc(S(=O)(=O)N2CCc3ccccc3C2)cs1	-9	i	-4	-6	-15	0	-4	-23
C/C(Cc1ccccc1)=N/NC(=O)CCCC(=O)N/N=C(/C)Cc1ccccc1	-5	i	7	-10	/	-1	4	-12
O=C1CCN(C(=O)Cc2ccccc2)c2ccccc21	/	/	/	4	-9	-2	-4	/
COc1ccccc1-c1c(C#N)c(SCC(=O)N2CCCC2)nc(C)c1C(N)=O	1	i	3	/	/	/	/	/
Cc1ccc(C(O)c2ncc(-c3ccccc3C)[nH]2)cc1F (stereo unspecified)	/	/	/	-3	-14	3	-3	/
Nc1c(C(=O)Nc2ccc(Cl)c(C(=O)O)c2)sc2nc3c(cc12)CCCC3	-13	i	30	-31	-20	1	3	5
CC(NC(=O)c1ccco1)C(=O)N1CCN(S(=O)(=O)c2ccccc2C#N)CC1 (stereo unspecified)	/	/	/	-4	-5	0	5	/
CO[C@@H]1CN(C)C(=O)c2cc(NC(=O)NC3CCCCC3)ccc2OC[C@@H](C)N(CC2CCOCC2)C[C@@H]1C	/	/	/	-19	-7	-1	2	/
O=C(CSc1nc2cc(Cl)ccc2o1)Nc1ccc(N2CCOCC2)cc1	-3	i	8	/	/	0	0	/
CCn1ncc(NC(=S)NCCc2ccccc2)c1C(N)=O	1	i	3	1	/	1	-2	1
Cc1ccc(C)c(NC(=O)CCC(=O)N/N=C/c2ccc3c(c2)OCO3)c1	8	i	-2	5	/	3	4	-7
O=C(CCCn1c(=O)c2sccc2n(CC(=O)OCc2ccccc2)c1=O)NCc1ccco1	-5	i	-5	-72	-5	1	3	/
Cc1ccnc(NC(=O)CN2C(=O)NC(C)(c3ccc4ccccc4c3)C2=O)c1 (stereo unspecified)	/	/	/	-3	31	4	0	/
O=C(N/C(=C/c1ccccc1)C(=O)N1CCCCC1)c1ccco1	1	i	4	19	-3	-3	2	2
O=C(O)c1ccc(CSc2nnc(-c3ccncc3)n2-c2ccc(Br)cc2)cc1	-2	i	-3	29	0	1	1	-9
Cc1cc(C(=O)CSc2nnc(-c3ccc(F)cc3)o2)c(C)n1CC1CCCO1 (stereo unspecified)	19	i	23	/	-18	-4	-6	6
CC(C)c1ccc(N(CC(=O)N2CCOCC2)S(C)(=O)=O)cc1	-4	i	6	-13	-23	-2	-2	-8
Cc1cccc(NC(=O)CN2C(=O)CCS(=O)(=O)c3ccccc32)c1C	-2	i	12	9	-18	-5	0	-13
COc1ccc(CN2C[C@H]3CON(C)[C@H]3C[C@H]2c2ccc(-c3cccc(F)c3)cc2)cc1	/	/	/	37	-6	-6	-6	/
CCOC(=O)CC1=C(C(=O)OCC)C(c2ccc(C)o2)C(C#N)=C(N)O1 (stereo unspecified)	92*	i	79*	/	6	-23	10	-7	eIF4H inh retest=85*;PABP FP inh retest=80*
Oc1ccc2ccccc2c1CNc1ccc(Br)cn1	-2	i	0	6	-1	-4	-2	-14
OCCC1CN(Cc2ccc(C(F)(F)F)cc2)CCN1Cc1ccccc1 (stereo unspecified)	-10	i	-5	18	/	2	-4	/
Clc1nc(CN2CCCCC2)nc2sc3c(c12)CCC3	-7	i	10	-9	1	2	2	-4
O=C(Nc1ccnn1C1CCN(C(=O)Cc2cccc(Cl)c2)CC1)C1CC1	-5	i	2	-1	-15	0	-1	11
CC1CN(C(=O)c2ccccc2NS(=O)(=O)c2cccc([N+](=O)[O-])c2)CC(C)O1 (stereo unspecified)	-0.3*	i	106	-28	/	-3	5	-1	eIF4H inh retest=96*;PABP FP inh retest=43
O=C(CCC(=O)c1ccc(Oc2ccccc2)cc1)Nc1ccc(Cl)cc1Cl	-10	i	-4	?	-13	5	2	14
CCNC(=O)c1cc2ccccc2o1	1	i	0	-61	-14	-1	3	-13
CCCN1CCC(=O)N(CCSc2ccc(NC(C)=O)cc2)CC1	2	i	1	3	-13	1	3	-5
COc1ccccc1CCNC(=O)C(=O)NCC1OCCCN1S(=O)(=O)c1cc(C)ccc1C (stereo unspecified)	1	i	2	7	-2	-5	-8	-4
CCCN1Cc2cccc(C(=O)Nc3ccc(C)cc3)c2C1=O	-3	i	-11	-15	-14	0	-5	/
COc1ccc(CC(=O)Nc2ccc(-c3cn4cccc(C)c4n3)cc2)cc1OC	-16	i	-1	/	2	2	-6	0
COc1cccc(/C=N/NC(=O)C[n+]2ccccc2)c1O	9	i	-3	/	/	2	4	-9
COc1cccc(C(C(=O)Nc2ccc(F)cc2)N(C(=O)Cn2nnc3ccccc32)C2CC2)c1 (stereo unspecified)	0	i	-8	-36	/	-1	0	-8
COC(=O)C1C(=O)C2=C(CC1C)NC(=O)CC2c1ccc(F)cc1 (stereo unspecified)	-4	i	2	-2	/	-2	-3	-12
Cc1ccc(C(=O)NNC(=O)C(C)Oc2ccc3ccccc3c2)o1 (stereo unspecified)	/	i	/	22	/	0	-1	-6
O=C(CCC1CCCC1)NC1CCCCC1	-5	i	-7	/	-14	7	4	8
O=C(Cn1nnc(-c2ccccc2)n1)N/N=C/c1cccc([N+](=O)[O-])c1	-1	i	13	-31	-14	5	2	-3
CCCNC(=S)N1CCN(c2nc(-c3ccc(C)cc3)cs2)CC1	2	i	-11	12	-13	-3	-20	2
Cc1ccc2c(C)c(C(=O)N3CCN(C4CCS(=O)(=O)C4)CC3)oc2c1C (stereo unspecified)	-14	/	-1	10	-15	-1	4	11
Cn1c(C(=O)Nc2ccc3c(c2)OCCO3)cc2sccc21	-1	i	-6	/	-35	9	1	-5
CC(C(=O)N1c2ccccc2CCc2ccccc21)n1nnc(-c2ccc(N(C)C)cc2)n1 (stereo unspecified)	-6	i	1	/	-7	2	-3	4
CC(=O)Nc1cccc(OCC(=O)Nc2cccc(S(=O)(=O)N3CCCC3)c2)c1	/	/	/	27	-12	-2	-20	/
COc1ccc(Cc2nnc(NC(=O)Cn3cnc4c3c(=O)n(C)c(=O)n4C)s2)cc1OC	2	i	1	/	-11	3	3	-6
C#CCN(C[C@H]1[C@H](OC(=O)NC2CC2)[C@H](OC(=O)NC2CC2)C[C@H]2C(=O)N(c3ccccc3)C(=O)[C@@H]12)S(=O)(=O)c1ccc(C)cc1	/	/	/	0	6	4	4	/
COC(=O)[C@@H]1[C@H](CCc2ccccc2)NC(=O)N(Cc2ccccc2)[C@@H]1C	/	i	/	14	-12	1	-9	-12
O=[N+]([O-])c1ccc(Cl)cc1NCC1CCCO1 (stereo unspecified)	-3	i	-6	3	-3	-7	-5	-2
(list continues)
SMILES	eIF4H inh	Rce1 inhib	PABP FP inh	Env fusion inh	Yeast UUG start	MT1-MMP act inh	MT1-MMP act inh RFP	CSC inhib	others
O=C(c1ccoc1)N1CCCC(CO)(CCCc2ccccc2)C1 (stereo unspecified)	-1	i	2	30	-13	1	1	-9
Cc1ccc(-n2c(SCC(=O)NCc3ccco3)nc3c([nH]c4ccccc43)c2=O)cc1	12	i	5	-52	-19	-2	-1	-7
O=C(CCCCCN1C(=O)c2cccc3cccc(c23)C1=O)NCCO	-2	i	8	2	/	-1	4	0
COc1ccc(OC)c(C(=O)CSc2nnc(Cc3cccs3)n2C)c1	2	/	2	/	-11	7	8	-19
CC(=O)c1ccc(NC(=O)C2=CC(c3ccco3)=NS(=O)(=O)N2C)cc1	4	i	-2	-6	-11	2	1	10
Cc1nnc(SC(C)C(=O)Nc2ccc(S(=O)(=O)N3CCCCC3)cc2)s1 (stereo unspecified)	6	i	-7	/	-8	1	-12	1
O=Cc1c[nH]c2ncccc12	-16	i	2	12	13	1	3	-5
O=c1[nH]nc(SCCS(=O)(=O)c2ccc(F)cc2)n1-c1ccccc1	-3	i	-11	10	-2	1	-1	9
CCC(=O)c1cn([C@@H](CCC(OC)OC)CC(=O)OC(C)(C)C)cc1CC	/	i	/	-25	-10	2	-4	-5
CC(=O)N(c1ccccc1)c1nnc(-c2cnc(C)cn2)s1	-3	i	-5	-35	/	-1	1	-6
CCc1nc2ccc(C(=O)N3CCN(C(=O)c4ccco4)CC3)cn2c1N(C)Cc1nccn1C	/	/	/	2	4	1	3	/
CC1(C)Cc2c(cnn2-c2ccccc2)C(NC(=O)CCCN2CCCCC2=O)C1 (stereo unspecified)	-10	i	-3	6	-3	-1	0	-7
COC(=O)/C(=C\Nc1ccc(OC)cc1)NC(=O)c1ccc(Cl)cc1Cl	-1	i	-5	/	-8	1	1	2
